Bioassay records deposited in PubChem BioAssay by National Center for Advancing Translational Sciences (NCATS).
Menin-MLL FL inh: menin-MLL binding inhibition, fluorescein peptide | Fluorescence polarization, fluorescein-MLL peptide displacement from menin | FP activity change, % at 61.4 µM | 290,000 tested, under 10 active; inconclusive = falling polarisation curve, or a change in total fluorescence; inactive = total fluorescence flat and polarisation flat or rising; no compound was filed as active; the % refers to the polarisation; negative = inhibition;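 also: % of control where 0% means no effect; inhibitors lower the polarisation; unlabelled MLL peptide was the positive control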
gsp antagonist: antagonizes gsp, the McCune-Albright syndrome mutation | gsp-mutant cells, cAMP HTRF, 30 min; control for the full effect not named in the record | AID 624288 | 340,000 tested, 0.4% active | Potency, µM (doses to about 76.9 µM), without a hit: top-dose activity change, negative = inhibition, hits mostly inhibitors; active = falling curve of any shape with a large fitted effect; inconclusive = falling curve, mostly with a smaller effect; inactive = flat or rising curve; cell line not stated here;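 also: intracellular cAMP measured with PDE inhibitor Ro 20-1724 present during compound exposure; potency is read from the fitted curve at half-maximal effect; % is scaled to controls: 0 for no effect and ±100 for the full control effect; nearly all actives have a fitted effect of over 65% in size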
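Measurement of cellular cAMP by homogeneous time-resolved fluorescence following a 30 min compound exposure at 37C. The PDE inhibitor […] was present throughout; the assay buffer was DPBS with 0.05% BSA and 0.005% Tween 20.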
PINK1 expr mod: modulators of PINK1 expression. PINK1 immunofluorescence, high-content cytometry, 24 h. Potency, µM (series often up to 76.6 µM), without a hit: top-dose activation (PINK1 increase), hits mostly activators. 410,000 tested, 0.2% active. AID 624263; active = well fitted activation curve with a large enough effect; inconclusive = small, poorly fitted or top-dose-only effect; inactive = flat fitted curve, though single readings scatter; cell line not stated here;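 also: potency is read from the fitted curve at half-maximal effect; % of control where 0% means no effect; nearly all actives have a fitted effect of over 65% in size; a mitochondrial uncoupler was the plate control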
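Stable cell line treated 24 h with compounds at 5 concentrations (CCCP controls), then fixed and immunostained for PINK1 plus nuclear and cell stains; PINK1 immunofluorescence quantified by laser-scanning microplate cytometry.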
ClpP mod: qHTS Assay for Activators of ClpP. ATP-dependent Clp protease proteolytic subunit (Bacillus subtilis (strain 168)), P80244. purified B. subtilis ClpP, FRET peptide cleavage, 20 min. Potency, µM (top dose mostly 57.5 µM), without a hit: at the top dose activity change, negative = active. 340,000 tested, 1.9% active; active = well fitted falling curve with a large enough effect; inconclusive = small, poorly fitted or top-dose-only effect; inactive = no such curve, though single readings can be large or run the other way; also: potency is read from the fitted curve at half-maximal effect; the source files actives as falling curves though it sought activators and does not explain the sign; nearly all actives have a fitted effect of over 65% in size; many hits overshoot -100%
Target sequence (P80244 whole entry, looked up): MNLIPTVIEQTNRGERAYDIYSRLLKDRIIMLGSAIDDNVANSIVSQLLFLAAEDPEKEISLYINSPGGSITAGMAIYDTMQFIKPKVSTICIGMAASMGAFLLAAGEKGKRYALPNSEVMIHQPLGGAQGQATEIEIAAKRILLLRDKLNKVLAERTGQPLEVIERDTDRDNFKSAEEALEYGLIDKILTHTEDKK
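FRET quenching reversal measured ClpP activation: 10 microg/mL B. subtilis ClpP at pH 8 with the FRET-FV decapeptide, read at 430 nm after 320 nm excitation. The 20-min minus 0-min signal was scaled between DMSO/no-enzyme wells and ADEP (5.8 microM final).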
Sfp inh: Sfp phosphopantetheinyl transferase inhibition; Q9F4F7; Biochemical Sfp PPTase activity, qHTS; Potency, µM, inactives show max response, negative = inhibition, most hits filed as inhibitors; 310,000 tested, 3.5% active; AID 1490; active = well fitted inhibition curve with a large enough effect; inconclusive = small, poorly fitted or top-dose-only effect, or another doubt; inactive = no such curve, though single readings can be large or run the other way;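 also: the enzyme is Sfp with the accession as filed and its product quenches rhodamine fluorescence; potency is read from the fitted curve at half-maximal effect; 0% = enzyme reaction without inhibitor and -100% = no enzyme wells; top concentration of the series not given in the record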
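Sfp 15 nM + cpd, 15 min RT; start w/ rhodamine-CoA 5 uM, BHQ-2-YbbR 12.5 uM (final); 50 mM Hepes pH 7.6, 10 mM MgCl2, 0.01% NP-40, 0.01% BSA; read 525/598 nm at 0 and 30 min.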
D2 agonist: human D2 receptor agonism in beta-arrestin assay | DiscoveRx PathHunter D2 beta-arrestin, luminescence, 90 min; 100% = 57 uM dopamine signal | activation, % (test concentration not listed) | 360,000 tested, 0.084% active | AID 624465; in the data active = activation above about 40%; inconclusive = about 15% to 40%; inactive = below about 15%; also: compound concentration not given in the record; the text of the record calls up to 30% inactive
Target sequence (P14416 whole entry, looked up): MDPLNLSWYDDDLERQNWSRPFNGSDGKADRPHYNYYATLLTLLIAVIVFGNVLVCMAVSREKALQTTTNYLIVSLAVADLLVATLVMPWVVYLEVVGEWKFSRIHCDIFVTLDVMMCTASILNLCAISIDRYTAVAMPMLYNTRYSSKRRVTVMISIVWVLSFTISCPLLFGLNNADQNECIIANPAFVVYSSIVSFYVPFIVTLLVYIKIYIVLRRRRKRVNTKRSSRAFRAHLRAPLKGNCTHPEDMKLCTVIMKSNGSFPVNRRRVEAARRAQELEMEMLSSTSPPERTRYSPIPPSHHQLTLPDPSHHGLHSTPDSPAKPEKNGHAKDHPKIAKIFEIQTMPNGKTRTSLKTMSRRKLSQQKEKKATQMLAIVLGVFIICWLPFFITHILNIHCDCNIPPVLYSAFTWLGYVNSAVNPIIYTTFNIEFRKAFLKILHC
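Agonist mode: compounds alone added to overnight-plated D2 PathHunter cells for 90 min at 37 C, with 57 uM final dopamine (EC100) defining full response. Beta-arrestin recruitment detected by chemiluminescent reagent, read after 1 h at ambient temperature.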
gsp agonist: gsp mutant agonism; gsp mutant cells, cAMP HTRF, 30 min; control for the full effect not named in the record; 340,000 tested, 0.13% active; Potency, µM (top dose mostly 76.9 µM), for the others: top-dose activation (cAMP increase), actives largely listed as activators; active = well fitted activation curve with a large enough effect; inconclusive = small, poorly fitted or top-dose-only effect, or another doubt; inactive = no such curve, though single readings can be large or run the other way; cell line not stated here;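 also: phosphodiesterase inhibitor Ro 20-1724 added with compounds to block cAMP breakdown; potency is read from the fitted curve at half-maximal effect; nearly all actives have a fitted effect of over 60% in size; about a fifth of the inactives were tested at one dose only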
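Cells stably selected in G418 were plated at 2000/well, grown 16-24 hr, then given compounds in DMSO with the PDE inhibitor […] (300 uM solution added) for 30 min at 37C; cAMP was read by HTRF.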
Active calls of the source: *; ? = inconclusive; nt = no result given; [ ] = another dose, or the depositor's remark.

SMILES | Menin-MLL FL inh | gsp antagonist | PINK1 expr mod | ClpP mod | Sfp inh | D2 agonist | gsp agonist
CC(C)(C)c1ccc(NC(=O)N2CCCN(c3ccc([N+](=O)[O-])cn3)CC2)cc1 | 5.8 | ? | -0.1% | nt | -2% | -5.0 | 2%[15.4 µM]
COC(=O)c1ccccc1S(=O)(=O)N1CCC(C(=O)OC(C)C(=O)N(C)Cc2ccccc2)CC1 (stereo unspecified) | nt | -4% | 6.7% | -1.3% | nt | 1.8 | 2%
Nc1nonc1-n1nnc(C(=O)N/N=C/C2CC=CCC2)c1CSc1ccccc1 (stereo unspecified) | 1.0 | -2% | -2.6% | -0.1% | 18% | -3.7 | 1%[15.4 µM]
Cn1c(=O)c2c(ncn2CC(=O)OCC(=O)Nc2ccc(Cl)cc2)n(C)c1=O | 2.4 | -4% | 0.9% | 3.6% | 8% | -2.0 | 2%[15.4 µM]
CC(C)COC(=O)c1ccccc1N1C(=O)C2C3CCC(C3)C2C1=O (stereo unspecified) | 4.4 | 3% | ? | 1.5% | ? | -3.6 | -3%[15.4 µM]
COc1ccc(NCC(=O)N/N=C/c2cc([N+](=O)[O-])ccc2N2CCCC2)cc1 | -2.7 | -6% | 1.9% | nt | 2% | 0.5 | 2%[15.4 µM]
COc1ccc(-c2nc3c(c(=O)n(C)c(=O)n3C)n2CC2CC(c3ccccc3)=NO2)cc1OC (stereo unspecified) | nt | 1% | -0.9% | -8.2% | nt | -0.5 | -2%
Clc1ccc(Sc2cnc3ccccc3n2)cc1 | 1.9 | 12% | 1.9% | -8.2% | -9% | -4.0 | 0%
COc1ccc(NC(=O)c2cc3ccccc3o2)cc1OC | ? | -5% | 0.0% | -0.9% | 9% | -0.9 | 2%[15.4 µM]
CCOc1cc(/C=C2/SC(=S)NC2=O)ccc1OC(=O)c1ccco1 | ? | -24% | -0.6% | nt | 40µM* | -4.0 | 10%
CC(Oc1coc(CN2CCN(C(=O)c3ccco3)CC2)cc1=O)c1ccccc1 (stereo unspecified) | nt | 0% | -0.1% | 0.9% | nt | 4.3 | -2%[15.4 µM]
O=C(c1cccc(F)c1)N1CCC2(CCCN(c3ccncc3)C2)CC1 | -5.0 | nt | 1.2% | nt | 11% | nt | nt
Cc1ccc(C(=O)Nc2cc(Cl)ccc2N2CCCCC2)s1 | -3.2 | -5% | 0.5% | ? | -5% | -0.3 | 22%
COc1cc(OC)c(C(=O)N(CCc2ccccc2)Cc2ccccc2)cc1OC | 4.3 | -15% | 0.5% | 0.3% | 8% | -3.2 | -76%[inhibitor]
CCOc1ccc(OCCC(=O)OCC(=O)N2CCN(S(=O)(=O)c3ccc(Cl)cc3)CC2)cc1 | 0.0 | 22% | 12% | -0.4% | -10% | 0.2 | 22%
COc1ccc(CCNC2=C(Cl)C(=O)N(CCc3ccccc3)C2=O)cc1OC | 1.7 | -9% | 2.4% | -5.3% | -13% | -16 | -34%
CCOC(=O)N1CCN(C(=O)C2CCC(=O)N(CCCN3CCCC3=O)C2)CC1 (stereo unspecified) | nt | 9% | -0.4% | 1.5% | 8% | 0.0 | -33%[inhibitor]
Cn1c(SCC(=O)Nc2ccc3c(c2)OCCO3)nnc1C1CC1 | -11 | 11% | 6.6% | nt | -3% | 6.7 | 0%
O=C(CN1C(=O)c2cccc3cccc1c23)Nc1ccc(S(=O)(=O)Nc2nccs2)cc1 | 4.1 | 3% | nt | 3.4% | -7% | -2.8 | 6%
Cc1ccc(S(=O)(=O)N2CCN(C(=O)COC(=O)C3CCC3)CC2)c(C)c1 | nt | 16% | -2.7% | 25µM* | nt | -1.3 | ?
COc1ccc(C(C)=O)cc1CSCCC#N | 5.6 | 1% | -1.1% | -1.7% | 15% | -0.4 | 8%
COCCn1cc(-c2csc(N)n2)c2ccccc21 | -13 | 1% | 1.5% | -9.3% | 5% | -8.2 | -32%[inhibitor]
CN(c1ccc(C(=O)N2CCOCC2)cc1)S(=O)(=O)c1cccs1 | -3.8 | 7% | 3.0% | nt | 1% | 4.2 | ?
O=C(OCc1csc(Nc2ccccc2)n1)c1ccc(Cl)cc1 | 5.5 | -19% | 8.1% | -1.2% | -9% | -3.4 | ?
COc1ccc(OCC(=O)Nc2ccc(S(=O)(=O)Nc3nc(C)cc(C)n3)cc2)cc1 | 0.5 | -10% | 3.5% | nt | 21% | 1.4 | ?
CCNc1nc(Cl)nc(NNC(=O)C(C)Oc2ccccc2)n1 (stereo unspecified) | 2.3 | 4% | 2.7% | -11% | 11% | -2.3 | -12%
CC(Sc1nc2ccccc2s1)C(=O)c1c(N)n(C)c(=O)n(C)c1=O (stereo unspecified) | 6.2 | 10% | -0.8% | 1.5% | 10% | -2.9 | -119%[inhibitor]
CC(C)(C)NC(=O)COC(=O)c1ccc(Cl)c(S(N)(=O)=O)c1 | -1.1 | 3% | 4.4% | nt | 18% | -2.7 | 14%[15.4 µM]
CCCCn1c(=NC(=O)c2cccnc2)c(C#N)cc2c(=O)n3cccc(C)c3nc21 | 2.3 | -6% | 13% | ? | 10% | -4.3 | 1%
Cc1csc(NC(=O)CSc2nncn2C)n1 | -2.8 | -1% | 0.0% | -1.2% | 15% | -1.6 | 4%
S=C(c1ccc[nH]1)N1CCOCC1 | 2.1 | 0% | 8.1%[38.3 µM] | -5.3% | -2% | -1.7 | -2%
CNC(=O)c1c(NC(=O)c2ccc(S(=O)(=O)N3CCCc4ccccc43)cc2)sc2c1CCN(C)C2 | ? | -13% | ? | -0.3% | -5% | -2.6 | 22%
NS(=O)(=O)c1cccc(NC(=O)COC(=O)CCN2C(=O)c3ccccc3C2=O)c1 | nt | 8% | 2.5% | -0.4% | nt | 2.8 | -47%[inhibitor]
Cc1ccc(N(CC(=O)Nc2ccccc2-c2ccccc2)S(=O)(=O)c2ccccc2)cc1 | -1.0 | -7% | 7.7% | -2.0% | 4% | 1.3 | 0%
COc1ccc(-c2ccnc3c(Br)c(C)nn23)cc1 | nt | -6% | 1.2% | -1.5% | nt | 7.3 | 5%
CC(C)CCNC(=O)c1sc2ccc(S(=O)(=O)N3CCCCC3)cc2c1N | 1.6 | -5% | 3.3% | nt | ? | -0.8 | -13%
Nc1ncnc2c1ncn2C1O[C@H](CO)[C@@H](O)[C@@H]1O (stereo partly specified) | nt | 10% | 0.2% | -0.7% | nt | -6.1 | nt
Cc1ccc2c(CN3CCN(CCO)CC3)cc(=O)oc2c1 | -2.8 | 7% | -1.1% | -2.9% | -2% | 0.1 | -11%
N#C/C=C/N1CCN(C(=O)c2ccco2)CC1 | nt | 7% | 1.1% | -0.4% | nt | 4.7 | 6%
NC(=O)[C@H]1CC2(CC(c3cccc(NC(=O)CC(c4ccccc4)c4ccccc4)c3)=NO2)CN1C(=O)C(c1ccccc1)c1ccccc1 (stereo partly specified) | -2.6 | -1% | 3.8% | -4.5% | 2% | -1.9 | -35%[inhibitor]
O=C1C(c2cc(=O)c3ccccc3[nH]2)=C(O)c2ccccc21 | 4.5 | -33% | 1.9% | nt | -13% | -2.1 | -22%
COC(=O)COc1ccc(S(=O)(=O)Nc2ccc3c(c2)OCCO3)cc1C | -5.1 | -13% | -0.7% | nt | 17% | -1.3 | -31%[inhibitor]
C=CCN1C(=O)SC(Cc2cccc(OC)c2O)C1=O (stereo unspecified) | 0.3 | 13% | 1.6% | nt | 12% | -0.7 | 3%[15.4 µM]
CSc1ncccc1C(=O)N1CCN(S(=O)(=O)c2ccccc2)CC1 | -9.8 | 13% | -1.1% | -2.7% | 9% | -6.7 | 19%[15.4 µM]
Cc1ccc(S(=O)(=O)N2CCCCC2)cc1NC(=O)c1cccnc1 | nt | 3% | 3.2% | -11% | nt | -3.8 | -5%
CCc1ccc2oc(C(=O)NCc3ccc(S(N)(=O)=O)cc3)c(C)c2c1 | -2.7 | -1% | -2.0% | nt | 15% | 1.4 | 18%
Cc1cc(C(=O)NNC(=O)c2ccc(NC(=O)CC#N)cc2)c(C)o1 | nt | 4% | -0.9% | -0.9% | nt | -0.4 | -33%[inhibitor]
CCC(C)NC(=O)c1ccccc1NC(=O)c1ccccc1N(C)S(C)(=O)=O (stereo unspecified) | 3.8 | 8% | 0.0% | -2.4% | 18% | -2.2 | 0%

3 of the entries above in order of their number in gsp antagonist, ascending.
Molecule	gsp antagonist
CCc1ccc2oc(C(=O)NCc3ccc(S(N)(=O)=O)cc3)c(C)c2c1	-1%
Nc1ncnc2c1ncn2C1O[C@H](CO)[C@@H](O)[C@@H]1O (stereo partly specified)	10%
C=CCN1C(=O)SC(Cc2cccc(OC)c2O)C1=O (stereo unspecified)	13%

The list goes on.
SMILES | Menin-MLL FL inh | gsp antagonist | PINK1 expr mod | ClpP mod | Sfp inh | D2 agonist | gsp agonist
NC(=S)Cc1ccc(Cl)cc1Cl | 2.3 | 7% | -0.1% | -1.9% | 9% | -10 | 2%[15.4 µM]
O=C(CCCSc1ccc(Cl)cc1)Nc1ccccc1O | -1.6 | -6% | 20% | nt | -14% | 1.5 | 0%
CCOC(=O)C1=C(C)NC(C)=C(C(=O)OCC)C1C(=O)OCC(=O)NCc1ccccc1OC | nt | -1% | 0.1% | 3.0% | nt | -2.0 | 6%[15.4 µM]
CC(C)C(NC(=O)CN1C(=O)c2ccccc2S1(=O)=O)C(C)C | -4.1 | 4% | 1.2% | 1.9% | -16% | -2.4 | -35%[inhibitor]
CCOC1=C2[C@H](c3cccs3)N(S(=O)(=O)c3ccc(C)cc3)C[C@H]2n2c(=O)n(-c3ccccc3)c(=O)n2C1 | nt | nt | 12% | -9.0% | nt | -4.9 | nt
Oc1ccccc1/C=N/Nc1ccccc1 | 6.0 | -7% | ? | nt | -4% | -3.1 | -6%
C=CCN(C(=O)c1csnn1)C(C(=O)NC1CCCC1)c1ccc(F)cc1 (stereo unspecified) | nt | -19% | -1.5% | -2.1% | 8% | -7.8 | 11%[15.4 µM]
Nc1ccn([C@@H]2O[C@H](CNCc3cc(Br)ccc3OCc3ccccc3)[C@@H](O)[C@H]2O)c(=O)n1 | nt | nt | -0.2% | 0.5% | nt | -2.7 | 10%
